Sa helicase inh: blocks Staphylococcus aureus DNA helicase; actives 0.05% (n = 120,000); inhibition, %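 (tested at about 80 µM)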; AID 485395; purified S. aureus helicase, fluorescence unwinding assay; about half of the hits fall short of the stated cut;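 active means both duplicates at 50% or more, or one of them with a favoured structure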;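 further: 0% = mean of negative control wells and 100% = mean of positive control wells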
MgrA DNA FP: S. aureus MgrA-DNA binding modulation. actives 0.13% (n = 84,000). fluorescence polarization. inhibition, %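 (about 10 µg/mL by stock and volumes)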;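 active means above 50% in either of two replicates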;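 further: 0% = protein plus DNA without compound and 100% = DNA alone without protein; higher means less MgrA bound to DNA so lower polarization; one replicate is shown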
* = called active by the depositor; i = inactive; · = not tested or not shown; & = joins results of further samples.

SMILES	Sa helicase inh	MgrA DNA FP
Brc1ccc(CSC2=NCN(Cc3cccnc3)CN2)cc1	·	-2.1
CCCn1c(=O)sc2ccccc2c1=O	·	-1.2
Cc1nn2c(=O)cc(CSCc3ccco3)nc2s1	26	·
CCOc1cccc(C(=O)NN2CCOCC2)c1	-7	2.3
COc1ccc(CCNC(=O)CSc2nc(C)c(C)c(=O)[nH]2)cc1OC	5	·
O=C(NCc1n[nH]c(=O)c2ccccc12)C1CC(=O)N(c2ccccc2)C1 (stereo not given)	6	·
C=C1C(C(=O)N2c3ccccc3CC2C)C1C(=O)N1c2ccccc2CC1C (stereo not given)	-1	·
Cc1ccc(/C=C/C(=O)NCc2ccncc2)cc1	7	0.9
Cc1ccc(NC(=O)CNS(=O)(=O)c2ccccc2)c(C(=O)c2ccccc2)c1	15	3.6
Cc1csc(C(C#N)C(=O)CSc2nnc(NCc3ccccc3)s2)n1 (stereo not given)	16	·
Cn1c(SCC(=O)c2ccc3c(c2)OCCO3)nnc1-c1ccc2ccccc2c1	·	-0.6
CC(C)(C#CC(O)(c1ccccc1)c1ccccc1)N1CCCCC1	8	2.2
COc1cnc(NS(=O)(=O)c2ccc(N)cc2)nc1	·	0.9&0.9
CCn1cc(C2=NCC(C)O2)c2ccccc21 (stereo not given)	-14	·
CCOc1cc2[nH]c(=O)n(Cc3cccc(OC)c3)c(=O)c2cc1OCC	-5	1.1
O=C(/C=C/c1ccc(Br)o1)OCC(=O)c1ccccc1	13	·
CCOC(=O)c1cccc(NC(=O)C2CCCN(c3ncnc4onc(C)c34)C2)c1 (stereo not given)	8	·
O=C(Nc1nncs1)c1ccccc1	16	-2.2
O=S(=O)(/N=C(\Nc1ccccn1)c1ccccc1)c1ccccc1	-26	·
CCc1ccc(S(=O)(=O)N2CC(=O)Nc3ccccc32)cc1	2	-0.9
Cc1cc(C)c(C(=O)COC(=O)C2CSC3(C)CCC(=O)N23)cc1C (stereo not given)	-10	·
O=C(COC(=O)c1cccs1)Nc1ccccc1	-5	-1.9
COc1cc2c(cc1OC)C(C)N(C(=O)c1cc(S(=O)(=O)N3CCCC3)cn1C)CC2 (stereo not given)	-9	·
O=C(Nc1ccc2oc(-c3ccc(F)cc3Cl)nc2c1)c1cc([N+](=O)[O-])cc([N+](=O)[O-])c1	·	-0.6
O=C(COC(=O)C1CC2CCCC(C1)C2=O)c1ccccc1 (stereo not given)	-9	·
COc1ccc(OCC(=O)Nc2ccc(CN3CCOCC3)cc2)cc1	24	4.3
O=C(OCc1ccc(Cl)cc1)c1cnc(N2CCCCC2)nc1C(F)(F)F	18	·
COc1cccc(NC(=S)C(C#N)=C2N(C)c3ccccc3N2C)c1	0	·
Cc1ccccc1Nc1nc(N)nc(CSc2nncn2-c2ccccc2)n1	-11	·
CCSC1=C(C#N)C(C)C(C#N)C(=O)N1 (stereo not given)	-16	1.1
CCOc1ccc(S(=O)(=O)N2CCN(c3ccc(F)cc3)CC2)cc1	10	·
CCOC(=O)CCCN1C(=O)/C(=C/c2cccc(OC)c2)SC1=S	5	·
O=C(NC1CCCC1)c1ccc(NC(=O)C2CCCO2)cc1 (stereo not given)	9	·
CN1CCCc2cc(/C=C3\Cc4ccccc4C3=O)ccc21	i	18
CCN(CC)C/C=C/c1c(F)c(F)c(NCCOC)c(F)c1F	7	0.1
Cc1cc(OC(CN(C)C)CN(C)C)nc2ccccc12	-6	·
CCCC(=O)N1CCN(c2nc(Cc3ccccc3)c3c(c2C#N)CC(C)(C)OC3)CC1	0	-0.8
Cc1cc(C(=O)CN2CC(=O)Nc3ccccc32)c(C)n1-c1c(C)n(C)n(-c2ccccc2)c1=O	-4	·
Nc1c(C(=O)O)ccc2c1C(=O)c1ccccc1C2=O	·	1.0
O=C(Cc1ccccc1)Nc1nnc(SCc2cccc(F)c2)s1	-13	·
O=C(O)CCc1nnc2ccc(N3CCCC3)nn12	4	0.9
Cc1cc(-c2csc(N)n2)c(C)n1C(C)C	-7	3.7
O=S(=O)(Nc1nc2ccccc2nc1NCCN1CCOCC1)c1ccc2c(c1)OCCO2	-11	·
Cc1ccccc1NC(=O)CSC1=NC(=O)CC(=O)N1Cc1ccccc1	-6	·
O=C(CSc1nc2ccc(Br)cc2c(=O)n1-c1ccccc1)NCc1ccco1	3	·
COc1cc2c(cc1OC)CC(C)(C)N(C(=O)c1ccccc1)C2	-9	·
CC(C(=O)OCC(=O)c1ccccc1)N1C(=O)c2ccccc2C1=O (stereo not given)	2	·
CC1CCC(NS(=O)(=O)c2ccc3c(c2)CCN3C(=O)CCCC(=O)O)CC1 (stereo not given)	8	·
Cc1cc(NC(=O)/C(C#N)=C/c2sc(N3CCOCC3)nc2-c2ccccc2)n(-c2ccccc2)n1	-199	·
CC(C)Oc1ccccc1/C=N/O	7	·
NC(=O)C1CCN(Cc2c(O)ccc3cc(Br)ccc23)CC1	-11	·
CCOc1cc2[nH]c(=S)n(CCCC(=O)N3CCCCCC3)c(=O)c2cc1OCC	-12	·
Fc1ccc(N2CCN(CCCNc3nc(-c4ccccc4F)no3)CC2)cc1	5	·
CC(C)/C=C/C1=CC2=C(C1)Cc1ccccc12	·	6.0
OCCN=c1cc(-c2ccccc2)oc2ccc(Cl)cc12	37	1.8
COc1ccc(Cl)cc1NC(=O)CSc1nc2nccnc2c(=O)n1Cc1ccc(C)cc1	2	1.2
O=S(=O)(Cc1nc(-c2ccccc2Cl)cs1)c1cccs1	·	-2.3
COc1cc(C(=O)NCc2nnc(SCC(=O)Nc3cc(C(F)(F)F)ccc3Cl)o2)cc(OC)c1OC	18	·
Cc1cc(C)n2nc(CNC(=O)Nc3ccccc3Cl)nc2n1	1	-1.9
O=C(NCCC(=O)N1CCCc2ccccc21)c1ccco1	2	·

The list goes on:
SMILES	Sa helicase inh	MgrA DNA FP
C=C1CC[C@@H](O)C/C1=C/C=C1\CCC[C@]2(C)[C@@H]([C@H](C)/C=C/[C@@H](C)C(C)C)CC[C@@H]12	·	2.8
CC1=CN2C(=N)/C(=C/c3cc(C)n(Cc4ccccc4)c3C)C(=O)N=C2S1	-1	1.8
CCOc1cc2c(cc1OCC)C1C(C(=O)NCCC(C)C)c3ccccc3C(=O)N1CC2 (stereo not given)	8	0.8
N#Cc1cccc(N2C(=O)C=CC2=O)c1	·	-11
CCCCOc1ccccc1C1NC(=O)NC(C)=C1C(=O)OCCc1ccccc1 (stereo not given)	·	-1.8
O=C(NCc1ccc(F)cc1)c1nn2c(c1Br)NC(c1cccs1)CC2C(F)(F)F (stereo not given)	·	0.4
O=C(O)/C=C/C(=O)Nc1ccc(-c2csnn2)cc1	·	-3.9
CCCCCC1C/C(=N\O)C=C(C)C1C(=O)OC (stereo not given)	-7	·
O=C(CN1C(=O)C2C3C=CC(C3)C2C1=O)NCCN1CCCc2ccccc21 (stereo not given)	14	-1.8
CCn1c(=O)c2c(c3ccccc31)Oc1ccc(C)cc1N=C2C	2	0.5
CCNc1nc(OC)nc(Oc2ccc(OCC(=O)OC)nn2)n1	22	·
COc1cccc2cc(C(=O)C3=C(O)C(=O)N(CCCn4ccnc4)C3c3ccc(F)cc3)oc12 (stereo not given)	7	8.2
CC1(C)CN(c2cc(C(F)(F)F)cc(C(F)(F)F)c2)C1=O	·	3.9
CCNC(=S)N1CCN(CCN=CC2=C(O)CC(c3ccccc3)CC2=O)CC1 (stereo not given)	4	1.9
O=C(/C=C/c1cccs1)NCCc1ccccc1	·	1.7
O=C(Nc1ccc2c(c1)OCCO2)c1cnccn1	·	0.1
Cc1nnc2sc(-c3cccc(NC(=O)c4ccco4)c3)nn12	0	·
Cc1ccsc1CNC(C)c1ccccc1 (stereo not given)	-3	-3.2
O=C(CCC1CCCCC1)Nc1ccc(S(=O)(=O)Nc2ncccn2)cc1	9	0.5
Cc1ccc2cc(CCNS(=O)(=O)c3ccccc3)c(=O)[nH]c2c1	-19	·
CCOC(=O)C1=C(C)NC(=O)NC1c1cn(-c2ccccc2)nc1C (stereo not given)	-11	·
Cc1onc(-c2c(Cl)cccc2Cl)c1C(=O)N=S1CCC2(C1)OCCO2 (stereo not given)	·	-2.6
O=C1CSC(=S)N1Cc1ccccc1	·	-3.2
Cc1ccccc1C(=O)Nc1cc2c(s1)CCCC2	2	2.4
O=C1NC2CC3CC(C2)CC1C3	15	·
Cc1ccc(N2C(=O)c3ccccc3NC2c2ccc(C)o2)cc1 (stereo not given)	24	·
CCCN(CCC)S(=O)(=O)c1ccc(C(=O)Nc2ccc3sc(SC)nc3c2)cc1	-3	1.8
COc1ccc(N(/N=C2\Oc3ccc4c(C)cc(=O)oc4c3C2=O)C(C)=O)cc1	9	-1.8
Cc1ccc(N2C(=O)C(C)C(N3CCCCC3)C2=O)cc1 (stereo not given)	·	1.4
CC(C)Cc1nc2ccccc2n1C(C)C	-11	·
O=C(Oc1ccc(Cl)cc1Cl)c1ccc(Br)o1	-13	·
COC(=O)C1CCN(C(=O)CN(C)Cc2ccc(C(C)(C)C)cc2)CC1	-9	·
CCOC(OCC)P(=O)(C(C)C)C(C)C	-7	-4.0
O=C(COc1ccc(Cl)cc1Cl)N=P(C1CCCCC1)(N1CCOCC1)N1CCOCC1	8	·
CC1C(c2ccccc2)O/C(=N\S(=O)(=O)c2ccc(Cl)cc2)N1C (stereo not given)	·	-1.2
Cc1nnn(C23CC4CC(CC(C(=O)NC5CCCCCC5)(C4)C2)C3)n1	-1	1.1
O=C1CSc2nnc(C3COc4ccccc4O3)n2N1 (stereo not given)	10	8.8
CC(=O)OC12CC3CC(C1)C(=O)C(C3)C2	26	·
COc1cccc(CNc2cccc3cccnc23)c1O	9	4.6
Brc1ccsc1-c1ccn[nH]1	·	-2.2
O=c1cc(Cn2cc(C(F)(F)F)cc(Cl)c2=O)[nH]c(=O)[nH]1	3	·
CN(C)c1ccc(/C=N/N=C(\C(=O)c2ccccc2)c2ccccc2)cc1	·	-3.3
O=c1nc(SCCc2ccccc2)nc2ccccn12	8	·
COc1ccc(Cc2nc(S(=O)(=O)c3ccc(C)cc3)c(N3CCC(C)CC3)o2)cc1	-29	·
CC1N(C)c2cc(NC(=O)c3ccco3)c(P(=O)(Nc3cccc(C(F)(F)F)c3)N3CCOCC3)cc2C1(C)C (stereo not given)	-4	·
OC(CSc1cccs1)CN1CCN(C(c2ccccc2)c2ccccc2)CC1 (stereo not given)	·	-1.4
CC(=O)N/C(=C\c1ccccc1)C(=O)NCc1ccco1	-9	·
O=C(CSc1ncccn1)N1CCCC1	-4	·
COc1ccc(C2C=C(C)Nc3nc4ccccc4n32)cc1 (stereo not given)	-1	-1.8
CCc1nc2c(oc3ccccc32)c(=O)[nH]1	10	·
COC(=O)/C(=C/c1ccc2c(c1)OCO2)NC(=O)c1ccco1	-2	-5.5
COC(=O)c1cc(NC(=O)COC(=O)CN2C(=O)C3CC=CCC3C2=O)cc(C(=O)OC)c1 (stereo not given)	-8	·
COc1cc(C2CC(=O)Nc3nc(SC)[nH]c(=O)c32)ccc1OCC(N)=O (stereo not given)	22	·
N#CCCC1CCCCCCCCCCC1=O (stereo not given)	26	·
O=C(OCCCc1nc2ccccc2[nH]1)c1cccs1	-14	·
CC(=O)NCc1c(-c2c(Cl)cccc2Cl)noc1C	·	-1.4
CC1CCC(NC(=O)c2ccc(CSc3nc4ccncc4[nH]3)cc2)CC1 (stereo not given)	15	0.6
COc1ccccc1N1CCN(C(=O)C2CCCN2C(N)=O)CC1 (stereo not given)	-3	·
CN(C(=O)c1cc2ccccc2o1)c1c(N)n(Cc2ccccc2)c(=O)[nH]c1=O	15	·
CC(Sc1nnnn1C)C(=O)C12CC3CC(CC(C3)C1)C2 (stereo not given)	-8	·
CC(=O)N1CCN(C(=O)CSc2nc3ccc(Cl)cc3c(=O)n2-c2ccc(F)cc2F)CC1	-8	·
O=C(c1ccc(CS(=O)c2ccccc2)o1)N1CCN(c2ccccc2F)CC1 (stereo not given)	-2	·

Some of the entries above, set out differently.
Results follow in this order: Sa helicase inh | MgrA DNA FP
> Brc1ccc(CSC2=NCN(Cc3cccnc3)CN2)cc1
    · | -2.1
> CCCn1c(=O)sc2ccccc2c1=O
    · | -1.2
> Cc1nn2c(=O)cc(CSCc3ccco3)nc2s1
    26 | ·
> CCOc1cccc(C(=O)NN2CCOCC2)c1
    -7 | 2.3
> COc1ccc(CCNC(=O)CSc2nc(C)c(C)c(=O)[nH]2)cc1OC
    5 | ·
> O=C(NCc1n[nH]c(=O)c2ccccc12)C1CC(=O)N(c2ccccc2)C1 (stereo not given)
    6 | ·
> C=C1C(C(=O)N2c3ccccc3CC2C)C1C(=O)N1c2ccccc2CC1C (stereo not given)
    -1 | ·
> Cc1ccc(/C=C/C(=O)NCc2ccncc2)cc1
    7 | 0.9
> Cc1ccc(NC(=O)CNS(=O)(=O)c2ccccc2)c(C(=O)c2ccccc2)c1
    15 | 3.6
> Cc1csc(C(C#N)C(=O)CSc2nnc(NCc3ccccc3)s2)n1 (stereo not given)
    16 | ·
> Cn1c(SCC(=O)c2ccc3c(c2)OCCO3)nnc1-c1ccc2ccccc2c1
    · | -0.6
> CC(C)(C#CC(O)(c1ccccc1)c1ccccc1)N1CCCCC1
    8 | 2.2
> COc1cnc(NS(=O)(=O)c2ccc(N)cc2)nc1
    · | 0.9&0.9
> CCn1cc(C2=NCC(C)O2)c2ccccc21 (stereo not given)
    -14 | ·
> CCOc1cc2[nH]c(=O)n(Cc3cccc(OC)c3)c(=O)c2cc1OCC
    -5 | 1.1
> O=C(/C=C/c1ccc(Br)o1)OCC(=O)c1ccccc1
    13 | ·
> CCOC(=O)c1cccc(NC(=O)C2CCCN(c3ncnc4onc(C)c34)C2)c1 (stereo not given)
    8 | ·
> O=C(Nc1nncs1)c1ccccc1
    16 | -2.2
> O=S(=O)(/N=C(\Nc1ccccn1)c1ccccc1)c1ccccc1
    -26 | ·
> CCc1ccc(S(=O)(=O)N2CC(=O)Nc3ccccc32)cc1
    2 | -0.9
> Cc1cc(C)c(C(=O)COC(=O)C2CSC3(C)CCC(=O)N23)cc1C (stereo not given)
    -10 | ·
> O=C(COC(=O)c1cccs1)Nc1ccccc1
    -5 | -1.9

Some of the compounds tested. The share of hits here may be higher or lower than overall.
